# AF4-AF9 inh = inhibitors of AF4 peptide binding to AF9, primary screen, biochemical, AlphaScreen, biotin-AF4 peptide, FLAG-AF9, single point; inhibition, % at 10 µM; hit rate 0.47% among 350,000; AID 651704, 2012;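 active = every replicate reaching a set inhibition limit, whatever the replicate mean, cut at about 25% in these data; inconclusive = mean inhibition reaches that limit but some replicates miss it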;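 note: 0% = plate neutral control median and 100% = total signal loss; the record names both 10 and 1 µM as test concentration; the first replicate is given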
# Vif A3G = inhibitors of Vif binding to APOBEC3G peptide, primary screen, biochemical, TR-FRET, GST-Vif 1-94, biotin-A3G peptide, dose response retest (AID 1117319); Virion infectivity factor (Human immunodeficiency virus type 1 group M subtype B (isolate …; TR-FRET GST-Vif / biotin-A3G peptide binding; higher % means a stronger effect; test concentration not given here; strong numbers were not always called active; inhibition, %, or IC50 in µM where a hit was titrated; hit rate 0.57% among 260,000;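 active = above the screen mean plus three standard deviations and confirmed in dose response; inconclusive = results disagree or hit not tested in dose response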;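 note: Vif residues 1-94 fused to GST binding biotinylated APOBEC3G peptide 110-148; 0% = full assay without inhibitor and 100% = GST in place of GST-Vif; retest series ran down from 100 µM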
# HNF4A DNA FP = change in binding of human HNF4A to DNA, primary screen, biochemical, fluorescence polarization, FITC-DNA; AID 1224865, 2016; 1 h; activity change, % at 10 µM; hit rate 0.3% among 360,000; Hepatocyte nuclear factor 4-alpha (Homo sapiens), P41235; in the data active = activity change above about 30%, passing the limit was not always enough;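 note: controls were the assay level and a saturating level of protein; the project sought stronger binding though the title names inhibitors; some compounds called inactive have numbers as strong as hits; positive values seem to mean higher polarization but the record does not say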
# Target sequence (P41235 whole entry, looked up): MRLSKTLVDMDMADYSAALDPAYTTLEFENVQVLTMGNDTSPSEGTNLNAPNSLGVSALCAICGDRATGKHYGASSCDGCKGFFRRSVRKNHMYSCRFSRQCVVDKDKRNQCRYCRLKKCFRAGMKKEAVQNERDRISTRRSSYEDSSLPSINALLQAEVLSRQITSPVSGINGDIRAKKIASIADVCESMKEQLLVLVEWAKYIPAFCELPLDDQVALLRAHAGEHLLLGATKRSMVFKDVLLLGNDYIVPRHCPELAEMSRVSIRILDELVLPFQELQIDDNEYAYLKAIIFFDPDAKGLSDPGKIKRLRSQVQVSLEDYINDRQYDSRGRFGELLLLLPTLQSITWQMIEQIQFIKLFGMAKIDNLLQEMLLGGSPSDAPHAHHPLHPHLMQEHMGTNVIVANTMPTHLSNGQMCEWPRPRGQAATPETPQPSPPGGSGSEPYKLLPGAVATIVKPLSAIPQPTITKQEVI
# rRNA inh HTS = reduced GFP signal of wild-type E. coli, primary screen, bacterial rRNA inhibitor project, GFP/RFP fluorescence, OD600, single point; hit rate 1.6% among 350,000; E. coli WT GFP vs humanized-ribosome RFP mutants, 24 h; active compounds read low; DMSO median 0, no signal -100; AID 720706, 2013; GFP signal change (wild-type ribosome), % (no concentration beside the values);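 active = significant combined selectivity score with lowered wild-type GFP, culture density cut under 30%, mutant RFP and density less affected; inactive = any of these conditions unmet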; note: one replicate is shown; some compounds called inactive have numbers as strong as hits
# Ecoli growth = E. coli growth inhibition, primary screen, OD600 | Escherichia coli growth, 23 h; active compounds read low | OD600 absorbance (test concentration not listed) | hit rate 0.21% among 330,000 | AID 1053175, 2014;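 active = OD600 absorbance below the run mean of sample wells minus 3.6 SD, in any replicate, cut at about 0.56 in these data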;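 note: stock transfer was 300 nL into about 60 µL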
# FGF22 binding = binders of human FGF22 protein, primary screen, FGF22 synaptogenesis inhibitor project, biophysical, thermal shift, single point | recombinant FGF22 thermal shift, SYPRO orange fluorescence; percent of sucrose octasulfate shift, DMSO zero | calls only at 9.99 µM | AID 651658, 2012 | Fibroblast growth factor 22 (Homo sapiens), Q9HCT0 | hit rate 1.5% among 340,000;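 active = melting point raised past a set limit in the mean and every replicate; inconclusive = no clear call; three in four hits are not shown here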
# Target sequence (Q9HCT0 whole entry, looked up): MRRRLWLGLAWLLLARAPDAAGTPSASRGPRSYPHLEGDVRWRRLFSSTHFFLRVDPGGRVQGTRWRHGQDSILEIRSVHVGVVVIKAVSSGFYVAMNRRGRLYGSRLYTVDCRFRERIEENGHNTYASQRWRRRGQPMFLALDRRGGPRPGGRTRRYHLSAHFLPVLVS
# ALR H2O2 inh = inhibitors of human ALR sulfhydryl oxidase, primary screen, biochemical, H2O2 detection, HRP-luminol luminescence, single point. purified ALR, DTT oxidation. hit rate 3.8% among 290,000. FAD-linked sulfhydryl oxidase ALR (Homo sapiens), P55789. inhibition, % (concentration not given with the values);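 active = mean and each replicate at 75% or more; inconclusive = only one of the two met; inactive = neither met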;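 note: stock transfer was 7.5 nL into about 7.5 µL; 0% = neutral wells and 100% = wells with inactivated enzyme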
# Target sequence (P55789 whole entry, looked up): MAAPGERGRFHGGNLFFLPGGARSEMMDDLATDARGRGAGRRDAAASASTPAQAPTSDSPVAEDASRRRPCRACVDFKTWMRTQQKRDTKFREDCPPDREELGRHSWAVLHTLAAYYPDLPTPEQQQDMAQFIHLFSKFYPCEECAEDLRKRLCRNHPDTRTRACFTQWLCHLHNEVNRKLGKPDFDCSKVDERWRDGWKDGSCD
# rRNA inh HTS OD600 = recorded beside rRNA inh HTS, whose call it bears; OD600 change, %; measured here: OD600 growth;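 optical density of the mix in the first replicate; 0 = DMSO median and -100 = no signal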
# rRNA inh HTS RFP = second read-out of rRNA inh HTS, no call of its own (marks repeat the call); RFP signal change, %; measured here: RFP humanized mutant strains;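 first replicate; 0 = DMSO median and -100 = no signal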
# * marks the source's active call; other numbers are inactive results; i = inactive; ? = inconclusive; / = not tested or not shown; + = active, no number. This is a subset; count on the stated rates, not on these rows.
SMILES,AF4-AF9 inh,Vif A3G,HNF4A DNA FP,rRNA inh HTS,rRNA inh HTS OD600,rRNA inh HTS RFP,Ecoli growth,FGF22 binding,ALR H2O2 inh
CC(C)NC(=O)N(C)C[C@@H]1Oc2ccc(NC(=O)Cc3cn(C)c4ccccc34)cc2CC(=O)N([C@H](C)CO)C[C@H]1C,-0.3,/,/,-4,1,-1.0,/,i,/
CCOC(=O)C(C(=O)Nc1ccccc1C)C1CCCCC1 (centres undefined),-2.1,6%,0.3,17,2,-0.1,0.7,i,1
Cc1ccc(C(=O)Nc2ccccc2N2CCCCC2)cc1,-21,-3%,1.9,-9,-17,3.0,0.62,i,/
CC1(C)CCc2cc(-c3ccnc(=S)[nH]3)ccc2O1,4.3,-7%,0.0,1,-6,-0.8,0.62,i,100*
CC(=Nc1ccccc1)C1=C(O)C(Cc2ccc(O)cc2)NC1=O (centres undefined),0.2,/,-3.1,8,3,0.8,/,i,/
O=C(COC(=O)c1ccc(Cl)c(S(=O)(=O)N2CCN(c3ccc(F)cc3)CC2)c1)Nc1cccc(Cl)c1,/,3%,-2.8,/,/,/,0.72,/,/
CCc1nnc(NC(=O)c2ccc(S(=O)(=O)N3CCOCC3)cc2)s1,-1.1,4%,4.2,2,11,-4.5,0.74,i,-7
CN1CCN(c2ncnc3scc(-c4ccccc4Cl)c23)CC1,1.5,/,-0.2,0,-20,-1.0,0.68,i,0
Cc1ccc(C)n1-c1ccc(-n2cnnn2)cc1,/,18%,-1.2,/,/,/,0.71,/,1
CC(=O)C1=C(C)NC(SCC(N)=O)=C(C#N)C1C (centres undefined),/,?,-2.2,/,/,/,0.71,/,-8
O=C(C(=O)c1cccnc1)c1cccnc1,0.8,17%,-8.8,14,-4,-3.1,0.7,i,0
COc1cccc(C2=Cc3ccc(F)cc3C(CC(C)=O)N2c2ccc(-c3cncnc3)cc2)c1 (centres undefined),2.4,/,3.5,-8,-6,7.1,/,i,/
N/C(=N\OC(=O)c1cc([N+](=O)[O-])ccc1Cl)c1ccccn1,0.3,0%,-1.5,-24,-34,-2.7,/,i,70
CN(C)C(=O)C(=O)c1c(-c2ccccc2)cc2ccccn12,/,3%,1.1,/,/,/,0.7,/,1
C[C@@H]1CCCCO[C@H](CN(C)Cc2ccncc2)[C@@H](C)CN([C@H](C)CO)C(=O)c2cc(NC(=O)Nc3cccc4ccccc34)ccc2O1,-2.9,/,/,-3,-3,4.6,/,i,/
CCCNC(=O)N1C[C@H](C)[C@H](OC)CN(C)C(=O)c2cc(NC(=O)CC)ccc2OC[C@@H]1C,-1.1,/,/,4,9,-0.7,/,i,/
COc1ccc(C(CNC(=O)c2ccc(NS(=O)(=O)c3cccc([N+](=O)[O-])c3)cc2)N2CCOCC2)cc1 (centres undefined),0.1,/,0.0,2,-2,-0.1,0.72,i,-7
CC(C)NC(=O)Nc1ccc2c(c1)CC(=O)N([C@H](C)CO)C[C@H](C)[C@H](CN(C)Cc1ccc(Cl)c(Cl)c1)O2,-3.9,/,/,-4,-28,9.8,/,i,/
O=C(C[C@@H]1C[C@@H]2c3cc(NS(=O)(=O)c4ccccc4)ccc3O[C@@H]2[C@H](CO)O1)NCC1CC1,-0.6,/,/,0,6,-1.7,/,i,/
COCC#Cc1ccc([C@@H]2[C@H](CO)N3C(=O)CN(C(=O)C4CCCCC4)C[C@@H]23)cc1,-2.7,/,/,7,0,-0.9,/,i,/
CN(C(=O)COC(=O)c1cccc(S(=O)(=O)N2CCCCC2)c1)C1CCS(=O)(=O)C1 (centres undefined),-3.9,5%,1.8,9,10,-1.9,0.62,i,-12
COCCN(C(=O)CSc1nnc2cc(C)c3ccccc3n12)c1c(N)n(Cc2ccccc2)c(=O)[nH]c1=O,2.9,1%,0.5,10,1,1.1,0.66,i,-9
COc1cc(/C=C/C(=O)O)cc(S(=O)(=O)NC2CCCC2)c1OC,6.3,/,-1.6,7,1,4.1,0.7,i,0
COc1ccc(-c2ccc([C@H]3[C@@H](CO)N4C(=O)CN(Cc5ccccc5)C[C@@H]34)cc2)cc1,3.0,/,/,1,-14,6.3,/,i,/
COc1cccc(CNC(=O)C[C@H]2CC[C@@H](NC(C)=O)[C@H](CO)O2)c1,-1.3,/,/,3,8,0.8,/,i,/

# Part of the list above, limited to FGF22 binding, HNF4A DNA FP and rRNA inh HTS RFP:
SMILES	FGF22 binding	HNF4A DNA FP	rRNA inh HTS RFP
CCOC(=O)C(C(=O)Nc1ccccc1C)C1CCCCC1 (centres undefined)	i	0.3	-0.1
Cc1ccc(C(=O)Nc2ccccc2N2CCCCC2)cc1	i	1.9	3.0
CC1(C)CCc2cc(-c3ccnc(=S)[nH]3)ccc2O1	i	0.0	-0.8

# The list continues.
SMILES,AF4-AF9 inh,Vif A3G,HNF4A DNA FP,rRNA inh HTS,rRNA inh HTS OD600,rRNA inh HTS RFP,Ecoli growth,FGF22 binding,ALR H2O2 inh
CCCC#Cc1ccc2c(c1)O[C@@H](CN(C)CC1CC1)[C@@H](C)CN([C@H](C)CO)S2(=O)=O,5.8,/,/,2,-6,1.6,/,i,/
O=C(OCc1c(Cl)cccc1Cl)c1cccnc1Cl,/,66%,1.4,/,/,/,0.69,/,-5
CN(C)CC(=O)N1[C@H](C#N)[C@@H](c2ccc(C#CC3CCCCC3)cc2)[C@H]1CO,-1.9,/,/,10,3,4.5,/,i,/
O=C(NC1CCCCCC1)c1c(F)c(F)c(F)c(F)c1F,/,10%,1.2,/,/,/,0.69,/,-2
COc1ccc(NC(=O)CC2C(=O)N(c3ccccc3)C(=O)N2Cc2ccco2)cc1 (centres undefined),-2.1,0%,1.2,7,0,1.7,0.69,i,-3
COc1cccc(/C=N/NC(=O)CSc2cccc3cccnc23)c1,6.3,-8%,-2.7,-12,-20,-1.0,/,/,-8
Cn1cc(S(=O)(=O)c2ccccc2)c(=O)c2cc(Cl)ccc21,-3.2,-1%,6.4,16,10,-0.8,0.65,i,-3
CC(C)NC(=O)N1CCCCN2[C@H](C1)[C@H](c1ccc(C#Cc3ccccc3)cc1)[C@@H]2CO,-2.4,/,/,-58,-70,-12,/,i,/
CC(=O)c1cc2c(cc1NC(=O)CN1CCN(c3ccc(F)cc3)CC1)OCO2,/,?,-1.1,/,/,/,0.74,/,-4
Cc1ccc(C)c(NC(=O)CN(C)C(=O)c2oc3c(Cl)cccc3c2C)c1,0.1,/,2.8,12,10,3.9,0.71,i,0
COc1ccc(NC(=O)Cc2ccc(Cl)cc2)cc1NC(=O)c1ccco1,/,69%,-3.0,/,/,/,0.68,/,-47
CC(=O)/C(N=Nc1ccc(-n2ccc(C(F)(F)F)n2)cc1)=C(\C)O,4.4,3%,3.1,-1,5,-1.4,0.68,i,0
COc1ccc(S(=O)(=O)N[C@@H]2CC[C@H](CCn3cc(-c4cccc(F)c4)nn3)O[C@@H]2CO)cc1,-0.9,/,/,-6,-11,2.3,/,i,/
CO[C@H]1CN(C)C(=O)c2cc(NC(=O)Nc3ccc(C(F)(F)F)cc3)ccc2OC[C@H](C)NC[C@H]1C,-6.4,/,/,-11,-24,26,/,i,/
CCOc1ccc(NC(C)=O)cc1N,/,/,-2.9,3,-4,-1.7,0.66,i,29
COc1ccc(NC(=O)N(C2CCCCC2)C(C)c2ccco2)c(OC)c1 (centres undefined),/,1%,-2.2,/,/,/,0.73,/,-40
Cc1ccc(-c2nnn(CC(=O)N(c3ccc(F)cc3)C(C(=O)NC(C)(C)C)c3ccco3)n2)o1 (centres undefined),/,/,4.5,/,/,/,0.7,/,-2
CC(=O)NN1CCc2cc3ccc(C)cc3nc21,1.7,7%,1.8,4,11,-1.9,0.67,i,/
O=C1[C@H]2[C@H](ON3CCCC[C@H]23)C(=O)N1c1ccc(Cl)cc1,-1.3,7%,2.8,21,13,3.0,0.66,i,-8
COc1cccc(CNC(=O)CCNC(=O)c2ccccc2OC)c1,-0.3,/,-1.7,15,8,1.8,0.68,i,0
CCCC(=O)N1CCN(c2ccc(NC(=O)c3cccs3)cc2Cl)CC1,-2.3,-3%,1.0,-11,-9,0.0,0.7,i,-2
Cc1cnc(NC(=O)CN2CCN(c3ccccc3F)CC2)s1,/,-3%,-3.0,/,/,/,0.77,/,2
CC(C)(C)OC(=O)N1CCCC(C(=O)Nc2ccc(C(=O)N3CCCCC3)cc2)C1 (centres undefined),-2.2,/,-4.9,0,2,-7.1,0.69,i,2
Cc1cc(C)c(-n2c(C)cc(/C=C3/NC(=O)NC3=O)c2C)c(C)c1,/,5%,/,/,/,/,0.7,/,10
COc1ccc(NC(=O)Nc2ccc3c(c2)C(=O)N([C@@H](C)CO)C[C@H](C)[C@@H](CN(C)Cc2ccccc2)O3)cc1,2.3,/,/,4,10,0.7,/,i,/
SMILES,AF4-AF9 inh,Vif A3G,HNF4A DNA FP,rRNA inh HTS,rRNA inh HTS OD600,rRNA inh HTS RFP,Ecoli growth,FGF22 binding,ALR H2O2 inh
COc1ccc(/C(O)=C2/C(=O)C(=O)N(CCCN3CCOCC3)C2c2ccc(C)cc2)cc1 (centres undefined),4.4,/,-1.6,2,0,-2.3,0.73,i,12
CCOc1ccc(NC(=O)CN(C)C(=O)C2CC(=O)N(CCc3ccc(OC)c(OC)c3)C2)cc1OCC (centres undefined),-1.1,/,0.9,5,3,0.0,0.63,+,/
O=C(NC1CCCC1)N[C@H]1CC[C@H](CC(=O)N2CCOCC2)O[C@H]1CO,1.6,/,/,3,12,0.6,/,i,/
COC(=O)c1ccc(C)c(NC(=S)NCc2ccc(Cl)cc2)c1,/,/,0.1,/,/,/,0.72,/,4
CCOc1ccc(CCNC(=O)COC(=O)/C=C/c2cccc(OC)c2)cc1OCC,4.1,-7%,-2.5,0,1,-1.5,0.65,i,-10
CC1CCCCN1S(=O)(=O)c1ccc(C(=O)Nc2nnc(-c3ccncc3)o2)cc1 (centres undefined),1.2,1%,1.7,-34,-57,5.1,0.67,i,81*
C/C(=N\Nc1ccc(Cl)nn1)c1ccccc1O,1.0,/,5.8,1,12,-3.1,/,i,/
Cc1noc(C)c1S(=O)(=O)Nc1ccc2c(c1)C(=O)N([C@@H](C)CO)C[C@@H](C)[C@H](CN(C)S(=O)(=O)c1c(C)noc1C)OCCCC[C@H](C)O2,0.8,/,/,2,1,-0.3,/,i,/
COC(=O)c1cc(Br)ccc1N(Cc1cc(OC)cc(OC)c1)S(C)(=O)=O,-1.2,/,1.2,-9,-13,-1.4,0.78,i,-5
CCOC(=O)CC1CCCCN1C(=O)CCCn1nnnc1CN1CCOCC1 (centres undefined),-0.1,/,10,9,13,1.4,0.7,i,0
CCNC(=O)N(CC)C[C@H]1N[C@@](Cc2ccccc2)(C(=O)OC)[C@H]2C(=O)N(Cc3ccccc3)C(=O)[C@@H]12,0.5,-7%,1.6,5,3,-1.5,0.7,i,0
COCC#Cc1cnc2c(c1)C(=O)N([C@H](C)CO)C[C@H](C)[C@H](CN(C)C(=O)c1ccc3c(c1)OCO3)O2,-2.3,/,/,0,13,-3.8,/,i,/

# Screens deposited in PubChem by several laboratories.
